OX1R antag-1: human HCRTR1 antagonism. O43613. CHO/OX1R cells, Fluo-8 calcium fluorescence, orexin A. inhibition, % at 5 µM. hit rate 0.43% among 330,000. AID 434989;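 active = inhibition above its plate's threshold, mean inhibition of all tested compounds on the plate plus 3 SD, cut at about 37% in these data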;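 also: 0% = orexin A challenge wells and 100% = SB-334867-A antagonist wells; not every result past the cut was called active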
Target sequence (O43613 whole entry, looked up): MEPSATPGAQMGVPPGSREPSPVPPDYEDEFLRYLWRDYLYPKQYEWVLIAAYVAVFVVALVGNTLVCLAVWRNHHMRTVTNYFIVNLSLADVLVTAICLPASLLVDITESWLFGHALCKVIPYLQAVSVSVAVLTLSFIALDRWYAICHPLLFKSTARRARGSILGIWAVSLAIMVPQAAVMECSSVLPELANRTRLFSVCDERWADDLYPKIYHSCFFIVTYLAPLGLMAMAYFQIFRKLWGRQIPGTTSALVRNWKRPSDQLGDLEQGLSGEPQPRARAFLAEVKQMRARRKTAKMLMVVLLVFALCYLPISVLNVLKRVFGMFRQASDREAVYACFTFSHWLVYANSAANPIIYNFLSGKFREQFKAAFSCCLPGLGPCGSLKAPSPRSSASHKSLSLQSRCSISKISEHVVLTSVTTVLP
OX1R antag-2: OX1R (human) antagonism; OX1R-expressing cells, FRET antagonist read-out; inhibition, % at 6.6 µM; hit rate 1.8% among 330,000; AID 485270; in the data active = inhibition mostly above about 38%, no sharp cut-off; inactive = mostly below about 40%;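 also: 0% = agonist challenge alone and 100% = reference antagonist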
* marks the source's active call; other numbers are inactive results. Not all compounds are listed, and most or all hits are left out here.

Value order: OX1R antag-1, OX1R antag-2
> C[C@H]1C=C(C(=O)NCc2nc3ccccc3[nH]2)O[C@@H](OCCCCO)C1
→ -15, 10
> O=S(=O)(Cc1cc(-c2ccc(Cl)cc2)no1)c1ccccc1
→ -24, 4
> Cc1ccc(N(CC(=O)NCc2ccco2)C(=O)CNS(=O)(=O)c2ccc(F)cc2)c(C)c1
→ -40, 8
> CCc1ccc(NC(=O)C2CCN(S(=O)(=O)c3cccs3)CC2)cc1
→ -1, 3
> COc1ccc(Nc2cc(C)nc3ncnn23)cc1Cl
→ -16, -1
> O=c1c2ccccc2nc(SCc2cc([N+](=O)[O-])cc3c2OCOC3)n1-c1ccccc1
→ -5, 0
> Cc1cccc(N2CCN(C(=O)CN3CCOc4ccccc43)CC2C)c1 (stereo not drawn)
→ -24, 17
> CC(C)(C)C(=O)Nc1c2c(nn1-c1ccccc1)CSC2
→ 8, 1
> CC(=O)NC(=S)Nc1ccccc1F
→ 0, 5
> CC(NC(=O)c1ccco1)C(c1cccs1)N1CCOCC1 (stereo not drawn)
→ -17, 8
> CCOC(=O)c1sc2nc(C(C)C)c3c(c2c1N)CCC3
→ -23, 12
> CCn1c(=O)cc(OCC(=O)NCCCN2CCC(C)CC2)c2ccccc21
→ -9, 12
> NC(=O)C1(N2CCCCC2)CCN(C(=O)c2ccc(C#Cc3ccccc3)o2)CC1
→ -15, 33
> COc1ccnc(CSC(N)=Nc2ccccc2OC)c1
→ 3, 10
> N#Cc1ccccc1S(=O)(=O)N1CCN(C(=O)CN2C(=O)NC3(CCCC3)C2=O)CC1
→ -9, 7
> O=C(O)C1=C[C@H](c2ccc3c(c2)OCO3)C[C@H](OCc2ccc(CO)cc2)O1
→ -16, 21
> C=CCn1c(SCc2ccc3nonc3c2)nnc1-c1cccs1
→ -25, 47
> COC(=O)CCCC(=O)NC(C)c1cnn(-c2ccccc2C)c1C (stereo not drawn)
→ -20, 23
> Cc1cccc(NC2=C(C#N)C(=O)NC3(CCCC3)S2)c1
→ -10, 9
> CN(C)Cc1ccccc1COc1ccccc1
→ -7, -4
> O=C(C1=C[C@H](c2ccc(Br)cc2)C[C@H](OCc2ccc(CO)cc2)O1)N1CCOCC1
→ -7, 11
> CC(=O)Cc1nsc(Nc2ccc(Cl)cc2)n1
→ -18, 6
> O=C(O)C1CN(C(=O)c2ccccc2)c2cc(Cl)ccc2O1 (stereo not drawn)
→ 8, -11
> COc1ccccc1-c1cc(C(=O)O)c2c(=O)n(C)c(=O)n(Cc3ccccc3)c2n1
→ -9, 9
> COc1ccc(/C=N/NC(=O)c2ccncc2)cc1COc1ccc(NC(C)=O)cc1
→ -15, 17
> COC(=O)c1ccc(OC(=O)/C=C/c2ccco2)cc1
→ -12, 6
> O=c1c2nccnc2[nH]c(=S)n1Cc1ccccc1
→ -3, 25
> CCCCn1c(N)c(N2CCOCC2)c(=O)n(CC(=O)NC(C)c2ccccc2)c1=O (stereo not drawn)
→ -3, 9
> Cc1cc(C)cc(N(CC(=O)NC2CCC(C)CC2)S(=O)(=O)c2c(C)[nH]c(=O)[nH]c2=O)c1 (stereo not drawn)
→ -7, -2
> COc1ccc(C(=O)Nn2c(SCC(=O)NC3CCCCC3)nc3ccccc3c2=O)cc1
→ -24, 12
> Cn1ccc(-c2cc(C(=O)O)c3ccccc3n2)n1
→ -5, 13
> COc1ccccc1N1CCN(C(=O)CCNS(=O)(=O)c2cc(Br)cnc2N)CC1
→ -26, 19
> CCOC(=O)C1(CCc2ccccc2)CCN(C(=O)C2CCCO2)CC1 (stereo not drawn)
→ -3, 3
> CC(=O)Nc1ccc2c(c1)nc(CN1CCCC1)n2C
→ -10, 11
> COc1ccc(OC)c(NC(=O)CCn2cccc2)c1
→ -3, 0
> CCN(CC)S(=O)(=O)c1cc(NS(=O)(=O)c2cccc(Cl)c2Cl)ccc1C
→ -35, 21
> O=C(Nc1nc(-c2cccnc2)cs1)c1ccccc1Cl
→ -4, 6
> CC(C)c1ccc(NC(=O)c2cc(Br)ccc2Br)cc1
→ -8, 18
> O=C(Nc1ccc(F)cc1F)N1CCN(c2ncccn2)CC1
→ 4, 0
> CCOc1ccccc1NC(=O)C1CCC(CNc2c(N3CCOCC3)c(=O)c2=O)CC1 (stereo not drawn)
→ 1, 9
> COc1ccc(-n2nc(C(=O)NCC(=O)NCC3CCCO3)c3ccccc3c2=O)cc1 (stereo not drawn)
→ -6, 13
> CN([C@@H](Cc1ccc(OS(=O)(=O)c2cccc3cnccc23)cc1)C(=O)N1CCN(c2ccccc2)CC1)S(=O)(=O)c1cccc2cnccc12
→ -10, 21
> Cc1cccc(NS(=O)(=O)c2ccc3[nH]c(=O)oc3c2)c1C
→ 9, 10
> O=C(CCN1C(=O)/C(=C/c2ccc3c(c2)OCO3)SC1=S)NNC(=O)c1cccnc1
→ -14, 15
> COC(=O)c1ccc(NC(=O)CO/N=C2\CCCc3nonc32)cc1
→ -6, 4
> CCCC(=O)Nc1c(-c2ccccc2)c(=O)c(C)nn1-c1ccc(Cl)cc1
→ -21, 21
> CCCn1c(SCC(=O)Nc2ccccc2C(=O)OC)nc2c1c(=O)n(C)c(=O)n2C
→ -19, 12
> Cc1ccc(S(=O)(=O)NCC(=O)NCC(=O)OC(C(=O)NC(N)=O)C(C)C)cc1C (stereo not drawn)
→ -3, 3
> CCN(CC)Cc1ccccc1Sc1ccccc1
→ -11, 1
> CCC1=NC(c2ccccc2Cl)N(O)C1(C)C (stereo not drawn)
→ -4, 9
> COc1ccc(NC(=S)N(CCO)Cc2cc3c(C)cc(C)cc3[nH]c2=O)cc1
→ -28, 9
> O=C(COC(=O)c1ccc(F)cc1)Nc1cc(S(=O)(=O)N2CCOCC2)ccc1N1CCCC1
→ -14, 4
> CCC1SC2=NC(C)=C(C(=O)OC)C(c3ccc(C(=O)OC)cc3)N2C1=O (stereo not drawn)
→ -23, 7
> Cc1cccc(CCNC(=O)CCCOc2cc(=O)n(C)c3ccccc23)c1
→ -11, 17
> COc1ccccc1CNC(=O)C1CCCN(S(C)(=O)=O)C1 (stereo not drawn)
→ -14, 12
> O=C(CCN1CCc2ccccc2C1)Nc1ccc(F)c(F)c1
→ -3, 11
> O=C(NC(=S)NNC(=O)c1ccccc1F)c1cccnc1
→ -5, 10
> Cc1cc(NC(=O)CN2CCOCC2)n(-c2nc3ccccc3s2)n1
→ -28, -1
> CC(OC(=O)Cc1c[nH]c2ccccc12)C(=O)Nc1ccc(S(N)(=O)=O)cc1 (stereo not drawn)
→ 10, 17
> CC(=O)c1c(N2CCOCC2)nc2ccc(Cl)cc2c1-c1ccccc1
→ -48, 1

(further entries)
Value order: OX1R antag-1, OX1R antag-2
> O=C(NCCCn1ccnc1)C(=O)NCC(c1ccco1)N1CCN(c2ccccc2)CC1 (stereo not drawn)
→ -7, 4
> COc1cccc(C(=O)N2N=C(c3cccc(OC)c3)CC2(O)C(F)(F)F)c1 (stereo not drawn)
→ -31, -8
> O=C(O)c1ccc(-c2noc(-c3ccccc3F)n2)cc1
→ -19, 17
> COc1ccccc1CNC(=O)C(CCSC)NS(=O)(=O)c1ccc2c(c1)oc(=O)n2C (stereo not drawn)
→ -38, 24
> O=C1CC2(CCN(C(=O)COc3ccccc3)CC2)Oc2ccccc21
→ -19, 13
> CCC(=O)N/C(N)=N/c1nc(C)c2cc(OC)ccc2n1
→ -12, 14
> COCCn1c(SCc2nc(N)nc(Nc3ccccc3C)n2)nc2ccccc2c1=O
→ -37, 24
> Cc1ccnc(N/N=C/c2ccco2)n1
→ 2, 8
> COc1ccc(NC(=O)COC(=O)c2c(-c3ccccc3)noc2C)cc1
→ -6, 11
> O[Si](CCCN1CCCCC1)(c1ccc(F)cc1)C1CCCCC1 (stereo not drawn)
→ -10, 8
> COc1cnc(-c2ccccn2)nc1Oc1ccc(Cl)cc1
→ -33, 4
> CCOc1ccc(NC(=O)[C@@H]2CCCN2C(=O)c2cccs2)cc1S(=O)(=O)N1CCOCC1
→ -30, 11
> O=C(COc1ccccc1)Nn1cnc2ccccc21
→ -21, 6
> Cc1sc2ncnc(Sc3ccccc3C(=O)Nc3ccc(Br)cc3)c2c1C
→ -29, 16
> CCc1nnc(NC(=O)c2cc(S(=O)(=O)N3CCN(c4ccccc4)CC3)ccc2Cl)s1
→ -43, 14
> O=C(CSc1nnc(-c2cccc(F)c2)o1)N1CCOCC1
→ 6, 8
> COc1ccc(Cn2ccnc2SCC(=O)NC2CCCC2)cc1
→ -16, 21
> COc1ccc(-c2nnc(Nc3nc4c(OC)cccc4s3)o2)c(OC)c1
→ 9, 14
> O=C(OCC(=O)c1c[nH]c2ccccc12)c1cc(Br)ccc1O
→ -15, 26
> CC(CCc1ccccc1)NC(=O)c1cc2sccc2n1C (stereo not drawn)
→ -2, 19
> COc1ccc(C(=O)N/N=C/c2ccc(OC(=O)c3cccs3)cc2)cc1
→ -20, 11
> O=C(Nc1ccc(F)cc1)Nc1nnc(-c2ccncc2)s1
→ -21, 10
> CNC(=O)NNC(=O)c1nc(-c2ccccc2)c(C)o1
→ -3, 6
> CCOC(=O)[C@H]1[C@H]2COc3ccccc3[C@@H]2N2C(=O)c3cc(OC)c(OC)cc3NC(=O)[C@@]12C
→ -21, 32
> O=C1C(c2ccc(F)cc2)N(CC2COc3ccccc3O2)C(=O)CN1C1CCCCC1 (stereo not drawn)
→ -25, 6
> O=C(Cc1cccc2ccccc12)N1CC[C@@]2(O)CCCC[C@H]2C1
→ -20, 10
> Cn1c(=Nc2ccccc2)sc2ccccc21
→ 5, 2
> COc1ccc(S(=O)(=O)Nc2cccc(SC)c2)cc1OC
→ -8, 13
> Cc1cccc(C)c1NC(=S)N(CCN(C)C)C(C)c1cccnc1 (stereo not drawn)
→ -8, 3
> O=C(COC(=O)c1ccc(F)c(S(=O)(=O)N2CCOCC2)c1)NCc1ccccc1
→ -29, 7
> CCOC(=O)N1CCC(n2c(SCC(=O)Nc3ccccc3OC)nc3ccccc3c2=O)CC1
→ -15, 1
> O=S(=O)(NC1=NCCCCC1)c1cc(F)ccc1F
→ -9, 5
> CC(=O)c1cccc(NC(=O)N2CCCC2C(=O)NC2CCCC2)c1 (stereo not drawn)
→ -5, 17
> Cc1c(C(=O)Nc2ccc(OCc3ccccc3)cc2)cccc1[N+](=O)[O-]
→ -3, 15
> COc1cccc(-c2ccc(=O)n(CC(=O)Nc3cc4c(cc3NC(C)=O)OCCO4)n2)c1
→ -10, 7
> COc1ccc(OC)c(-c2csc(NC(=O)C3c4ccccc4Oc4ccccc43)n2)c1
→ 8, 31
> Cc1ccc(OCC(=O)NNC(=O)C2CCN(c3nc(C)cc(C)n3)CC2)cc1
→ 0, 14
> O=C(CCNC(=O)c1ccccc1)NN=Cc1ccc(Br)o1
→ -8, 14
> CCC(C)NC(=O)C1CCN(S(=O)(=O)c2ccc(-n3cnnn3)cc2)CC1 (stereo not drawn)
→ -1, 5
> Cc1ccc(-c2nnc(SCC(=O)N/N=C/c3c(C)nn(-c4ccccc4)c3C)n2-c2ccccc2)cc1
→ -40, 19
> CC1CC(C)CN(CC(O)COCCOc2ccc(Br)cc2)C1 (stereo not drawn)
→ -21, 11
> COc1ccccc1CC(NC(C)=O)C(=O)NC1CCN(C(=O)Nc2ccccc2F)CC1 (stereo not drawn)
→ -3, 20
> O=C(Nc1cccc2nsnc12)c1cccnc1Cl
→ -15, 33
> CC(C)CC(=O)NC(=S)NNC(=O)c1ccc(NC(=O)C2CCCCC2)cc1
→ -19, -5
> COc1ccc(OC)c(-c2csc(N(CC3CCCO3)C(=O)Cc3ccccc3)n2)c1 (stereo not drawn)
→ -56, 22
> COc1cccc(OCC(O)CN2CCN(C(c3ccccc3)c3ccccc3)CC2)c1 (stereo not drawn)
→ -29, 3
> CC(C)NC(=O)N(Cc1ccccc1)Cc1cccs1
→ -20, 12
> COCC(C)NC(=O)CSc1nc2cc(S(=O)(=O)N3CCCCC3)ccc2o1 (stereo not drawn)
→ -16, 9
> CCOc1c(Br)cc(C2NC(=O)CCC2[N+](=O)[O-])cc1OC (stereo not drawn)
→ 8, -11
> COc1ccc(C(=O)N(CN2CCCC2=O)c2ccccc2OC)cc1OC
→ -9, 11
> CCOC(=O)c1c(NC(=S)NC)sc2c1CCCC2
→ -3, -2
> O=C(CSc1nn(-c2ccccc2)c(=S)s1)Nc1ncccn1
→ -30, 3
> COC(=O)CSc1nc2ccc(NC(C)=O)cc2s1
→ 7, 14

Structural class: the compounds so far with two or more sulfur atoms (14)
Value order: OX1R antag-1, OX1R antag-2
> CCc1ccc(NC(=O)C2CCN(S(=O)(=O)c3cccs3)CC2)cc1
→ -1, 3
> C=CCn1c(SCc2ccc3nonc3c2)nnc1-c1cccs1
→ -25, 47
> CCN(CC)S(=O)(=O)c1cc(NS(=O)(=O)c2cccc(Cl)c2Cl)ccc1C
→ -35, 21
> CN([C@@H](Cc1ccc(OS(=O)(=O)c2cccc3cnccc23)cc1)C(=O)N1CCN(c2ccccc2)CC1)S(=O)(=O)c1cccc2cnccc12
→ -10, 21
> O=C(CCN1C(=O)/C(=C/c2ccc3c(c2)OCO3)SC1=S)NNC(=O)c1cccnc1
→ -14, 15
> COc1ccccc1CNC(=O)C(CCSC)NS(=O)(=O)c1ccc2c(c1)oc(=O)n2C (stereo not drawn)
→ -38, 24
> CCOc1ccc(NC(=O)[C@@H]2CCCN2C(=O)c2cccs2)cc1S(=O)(=O)N1CCOCC1
→ -30, 11
> Cc1sc2ncnc(Sc3ccccc3C(=O)Nc3ccc(Br)cc3)c2c1C
→ -29, 16
> CCc1nnc(NC(=O)c2cc(S(=O)(=O)N3CCN(c4ccccc4)CC3)ccc2Cl)s1
→ -43, 14
> COc1ccc(S(=O)(=O)Nc2cccc(SC)c2)cc1OC
→ -8, 13
> COCC(C)NC(=O)CSc1nc2cc(S(=O)(=O)N3CCCCC3)ccc2o1 (stereo not drawn)
→ -16, 9
> CCOC(=O)c1c(NC(=S)NC)sc2c1CCCC2
→ -3, -2
> O=C(CSc1nn(-c2ccccc2)c(=S)s1)Nc1ncccn1
→ -30, 3
> COC(=O)CSc1nc2ccc(NC(C)=O)cc2s1
→ 7, 14

Compound activity (PubChem BioAssay)
